Rango-impB inh = prevents formation of the Rango-importin beta complex; Rango CFP/YFP FRET sensor + importin beta, 45 min; Potency, µM (series often up to 92.2 µM), inactives show at the highest dose inhibition of complex formation; 340,000 tested, 0.031% active; active = rising FRET ratio curve, often small or poorly fitted; inconclusive = mostly compound fluorescence or quenching in the first reads; inactive = flat curves in all reads;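 also: potency is read from the fitted curve at half-maximal effect; 0% = DMSO wells and 100% = buffer wells lacking importin beta; nearly all actives have a fitted effect of over 15% in size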
Target sequence (Q14974 whole entry, looked up): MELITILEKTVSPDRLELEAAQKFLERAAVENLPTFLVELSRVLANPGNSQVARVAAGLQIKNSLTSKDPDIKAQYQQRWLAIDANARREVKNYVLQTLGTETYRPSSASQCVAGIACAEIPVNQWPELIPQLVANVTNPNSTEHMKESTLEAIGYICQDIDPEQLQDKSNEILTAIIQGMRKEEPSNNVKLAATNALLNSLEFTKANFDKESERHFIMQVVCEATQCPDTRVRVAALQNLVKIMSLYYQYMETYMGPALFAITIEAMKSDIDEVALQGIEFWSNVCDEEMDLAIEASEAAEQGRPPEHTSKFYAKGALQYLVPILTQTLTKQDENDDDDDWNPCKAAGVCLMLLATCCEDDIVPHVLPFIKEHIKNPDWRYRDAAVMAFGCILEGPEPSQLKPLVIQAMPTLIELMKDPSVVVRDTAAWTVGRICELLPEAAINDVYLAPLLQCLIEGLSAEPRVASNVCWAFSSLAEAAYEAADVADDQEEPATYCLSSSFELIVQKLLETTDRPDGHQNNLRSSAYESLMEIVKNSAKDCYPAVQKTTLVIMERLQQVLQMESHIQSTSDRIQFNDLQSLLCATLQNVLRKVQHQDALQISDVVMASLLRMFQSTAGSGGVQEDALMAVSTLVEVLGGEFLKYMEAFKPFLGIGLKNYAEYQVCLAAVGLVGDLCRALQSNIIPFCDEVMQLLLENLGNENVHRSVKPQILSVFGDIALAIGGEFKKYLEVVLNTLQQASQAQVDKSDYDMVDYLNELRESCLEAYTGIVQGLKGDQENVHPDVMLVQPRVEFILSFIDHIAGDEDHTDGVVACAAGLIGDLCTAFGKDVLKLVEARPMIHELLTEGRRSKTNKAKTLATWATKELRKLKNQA
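FRET biosensor Rango (snurportin 1 IBB between N-terminal EYFP and C-terminal Cerulean), 50 nM in PBS/1 mM DTT/0.02% Tween-20/0.1% BSA, preincubated 5 min RT with compound; 0.125 microM importin beta added, 45 min RT, CFP/YFP FRET ratio read.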
miR-21 reporter = raises the signal of a miR-21 reporter; HeLa miR-21 FLuc reporter, luciferase, 48 h; Potency, µM (series often up to 38.3 µM), inactives show top-dose reporter change, positive = more light; 340,000 tested, under 10 active; active = well fitted rising curve with a large enough effect; inconclusive = small, poorly fitted or top-dose-only effect; inactive = no such curve, though single readings can be large or run the other way;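 also: % of control where 0% means no effect; miR-21 action dims this reporter so a rising signal means less miR-21 action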
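HeLa cells stably expressing CMV-driven firefly luciferase with a downstream miR-21 binding sequence, endogenously expressing miR-21, were treated with titrations (up to about 40uM final) for 48 hours at 37 degree Celsius. Luciferase luminescence was read after lysis.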
Rango release inh = inhibitors of RanGTP-induced Rango-importin beta complex dissociation; O95149+P62826; Biochemical FRET Rango-importin beta, RanGTP-induced dissociation; 340,000 tested, 0.071% active; Potency, µM (series often up to 46.1 µM), for inactives: at the highest dose activity change, negative = inhibition; active means falling FRET ratio curve, often poorly fitted, with flat reads before Ran was added; inconclusive means other falling curves, or compound fluorescence or quenching; inactive means flat or rising ratio curve;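 also: potency is read from the fitted curve at half-maximal effect; % of control where 0% means no effect; nearly all actives have a fitted effect of over 45% in size; -100% = wells without RanGTP and RCC1; the record marks most hits as doubtful in a second field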
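Compounds sat 5 min at room temperature with 0.1 uM Rango biosensor plus 0.25 uM importin beta, then FRET pre-read. RanGTP-RCC1 (0.6 uM Ran, 2mM GTP, 0.2 uM RCC1) added for 45 min, and the CFP/YFP post-read measured blocked complex dissociation.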
GLA inh pH 4.5 = alpha-galactosidase A (human) inhibition, pH 4.5. P06280. purified enzyme, 4-MU-alpha-Gal fluorescence, pH 4.5. activity change, negative = inhibition, % at 105 µM. 230,000 tested, under 10 active. AID 1467; inconclusive = small, poorly fitted or top-dose-only inhibition, or a rising curve; inactive = flat fitted curve, though single readings scatter; no compound was filed as active;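 also: 0% = full activity with enzyme and -100% = basal without enzyme; dose as in the result columns while the protocol names 77 µM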
Starred values were filed as active, the others as inactive; [ ] = another dose, or the depositor's remark. Not all compounds are listed (hit frequency here may not be typical).

`CN(CC(=O)Nc1ccc(Cl)c(C(F)(F)F)c1)C(=O)c1cnccn1` gave Rango-impB inh 1.6% and Rango release inh 5%.
Screening Cc1ccc(NS(=O)(=O)c2ccccc2F)cc1S(=O)(=O)N1CCCCCC1 returned Rango-impB inh -0.2% and Rango release inh 17%.
For Cc1c(O)ccc2c(CN3CCN(C/C=C/c4ccccc4)CC3)cc(=O)oc12 the results were Rango-impB inh inconclusive, miR-21 reporter 21%, Rango release inh inconclusive and GLA inh pH 4.5 -5.
CCc1cccc(CC)c1NC(=O)CSc1nc2ccc(N3C(=O)C4C(C3=O)[C@H]3C=C[C@@H]4C3)cc2s1 (stereo partly drawn) was read as Rango-impB inh 0.1%, miR-21 reporter -1%, Rango release inh 17% and GLA inh pH 4.5 -28.
`CCCn1c(N)c(N2CCCCC2)c(=O)n(CC(=O)Nc2ccccc2)c1=O` gave Rango-impB inh 3.0%, miR-21 reporter -18%, Rango release inh -2% and GLA inh pH 4.5 6.
Screening O=C(Nc1ccc(Br)cc1)c1ccc(F)c(S(=O)(=O)N2CCN(c3ccccn3)CC2)c1 returned Rango-impB inh -1.4%, miR-21 reporter 16%, Rango release inh 2% and GLA inh pH 4.5 -9[21.1 µM].
For Cn1c(SCC(=O)Nc2nc3ccccc3s2)nnc1-c1ccccc1 the results were Rango-impB inh 3.2%, miR-21 reporter -1%, Rango release inh 16% and GLA inh pH 4.5 -5.
For COc1cccc(CNC(=O)c2cc3c(C)nc4ccccc4c3o2)c1 the results were Rango-impB inh 1.1%, miR-21 reporter 19%, Rango release inh 22% and GLA inh pH 4.5 -13.
For CCCCCNC(=O)Cn1c(=O)c2c(ncn2CC(C)C)n(Cc2ccccc2)c1=O the results were Rango-impB inh -1.4%, miR-21 reporter 0% and Rango release inh 1%.
Screening C=CCn1cnc2c(nnn2-c2cc(C)cc(C)c2)c1=O returned Rango-impB inh -0.3%, miR-21 reporter -4%, Rango release inh 11% and GLA inh pH 4.5 2.
`CC(=O)Nc1ccc(S(=O)(=O)NNC2=NS(=O)(=O)c3ccccc32)cc1` gave Rango-impB inh 1.8%, miR-21 reporter 4%, Rango release inh 8% and GLA inh pH 4.5 -15.
Screening Cc1c(C(=O)C(=O)N2c3ccccc3CC2C)c2ccccc2n1C (stereo not drawn) returned Rango-impB inh 0.5%, miR-21 reporter 16%, Rango release inh -8% and GLA inh pH 4.5 -17.
Cc1cccc(NC(=O)c2ccc3c(c2)OCCO3)c1C was read as Rango-impB inh -2.0%, miR-21 reporter -64% and Rango release inh 4%.
`C[C@H]1COC(=O)[C@@H](Cc2ccc(F)cc2)CC/C=C/C[C@@H](CC(=O)N(CCO)Cc2ccccc2)C(=O)N1` gave Rango-impB inh 2.2% and Rango release inh 1%.
For c1ccc(Nc2nc(N3CCOCC3)nc(N3CCOCC3)n2)cc1 the results were Rango-impB inh 0.1%, miR-21 reporter 9%, Rango release inh 1% and GLA inh pH 4.5 -2.
For CCOC(=O)c1c(C)[nH]c(C)c1S(=O)(=O)Nc1ccc(CN2CCCCC2)cc1 the results were Rango-impB inh -2.2%, miR-21 reporter 0% and Rango release inh -7%.
For Cc1cccc(N=C2NC(=O)/C(=C/C=C/c3ccco3)S2)c1 the results were Rango-impB inh inconclusive, miR-21 reporter 0%, Rango release inh -29% and GLA inh pH 4.5 -5.
Screening Cc1ccc(Nc2cnn(C34CC5CC(CC(CC(=O)O)(C5)C3)C4)c(=O)c2Cl)cc1C returned Rango-impB inh 0.5%, miR-21 reporter -1%, Rango release inh 0% and GLA inh pH 4.5 5.
`COc1ccccc1-c1cc(C(F)(F)F)nc(S(=O)(=O)CCCC(=O)NC(C)C)n1` gave Rango-impB inh 7.3%, miR-21 reporter 2%, Rango release inh 8% and GLA inh pH 4.5 -3.
`O=C(Oc1cccc(OC(=O)N2CCCCC2)c1)N1CCCCC1` gave Rango-impB inh -2.5%, miR-21 reporter 2%, Rango release inh -13% and GLA inh pH 4.5 5.
Screening CCCNC(=O)CN(c1ccc(F)cc1)S(=O)(=O)c1ccc2c(c1)OCCO2 returned Rango-impB inh 3.6%, miR-21 reporter -3%, Rango release inh 17% and GLA inh pH 4.5 -11.
CC(=O)N(C)c1ccc(NS(=O)(=O)c2cc(Cl)ccc2Cl)cc1 was read as Rango-impB inh -2.2%, miR-21 reporter -1%, Rango release inh 23% and GLA inh pH 4.5 6.
`Cc1sc2ncnc(SCC(=O)N(C(C)C)C(C)C)c2c1C` gave Rango-impB inh -0.4%, miR-21 reporter 1%, Rango release inh 11% and GLA inh pH 4.5 -1.
`COc1cc(/C=N/NC(=O)c2ccccn2)ccc1OC(=O)c1ccccc1Br` gave Rango-impB inh 2.5%, miR-21 reporter -34% and Rango release inh -3%.
COc1ccc(OC)c(S(=O)(=O)N2CCN(c3ccc(F)cc3)CC2)c1 was read as Rango-impB inh inconclusive, miR-21 reporter -2% and Rango release inh 0%.
For CCSc1nnc(-c2ccc(OC)cc2)o1 the results were Rango-impB inh -1.1%, miR-21 reporter -55%, Rango release inh -4% and GLA inh pH 4.5 9.
COc1ccccc1NC(=O)CNC(=O)c1ccccc1 was read as Rango-impB inh -0.2%, miR-21 reporter -4%, Rango release inh 10% and GLA inh pH 4.5 -6.
`COC(=O)c1ccc(COc2ccc(C=O)cc2OC)o1` gave Rango-impB inh 0.1%, miR-21 reporter -12%, Rango release inh -2% and GLA inh pH 4.5 -1.
`CC(=O)c1ccc(Nc2ccc(-c3ccccc3F)nn2)cc1` gave Rango-impB inh -2.3%, miR-21 reporter -37%, Rango release inh -7% and GLA inh pH 4.5 2.
O=[N+]([O-])c1ccc(/C=C2\CCC(C3=CCCC3)=C2N2CCOCC2)cc1 was read as Rango-impB inh -0.2%, miR-21 reporter 14%, Rango release inh -27% and GLA inh pH 4.5 -11.
`CCn1c(COc2cccc(C)c2)nnc1SCC(=O)Nc1cccc(C(=O)OC)c1` gave Rango-impB inh 0.3%, miR-21 reporter -21%, Rango release inh 17% and GLA inh pH 4.5 -2.
For O=S(=O)([O-])CCC[N+]1(CC#Cc2ccccc2)CCCCC1 the results were Rango-impB inh -0.5%, miR-21 reporter 0%, Rango release inh 11% and GLA inh pH 4.5 -9.
For CC(C)COCc1ccc(O)c2ncccc12 the results were Rango-impB inh -5.6%, miR-21 reporter inconclusive, Rango release inh -7% and GLA inh pH 4.5 1.
Screening O=C(c1ccc([N+](=O)[O-])cc1[N+](=O)[O-])N1CCCC1 returned Rango-impB inh inconclusive, miR-21 reporter -1%, Rango release inh 25% and GLA inh pH 4.5 2.
Screening COc1cc(OC)c(S(=O)(=O)Nc2ccc(C(=O)O)cc2)cc1S(=O)(=O)Nc1ccc(C(=O)O)cc1 returned Rango-impB inh -0.4%, miR-21 reporter -3% and Rango release inh -12%.
C=CC[C@@H](Cc1ccc(F)cc1)C(=O)OC[C@H]1CCCN1C(=O)[C@H](CC=C)CC(=O)N(CCO)Cc1ccccc1 was read as Rango-impB inh 0.5% and Rango release inh -2%.
For CCCOC(=O)c1c(NC(=O)CCCn2nc([N+](=O)[O-])c(Cl)c2C)sc(C(=O)OC)c1C the results were Rango-impB inh -0.1%, miR-21 reporter -8%, Rango release inh 2% and GLA inh pH 4.5 -7.
`CC(=O)Nc1ccc(S(=O)(=O)NCCC(=O)Nc2ccc(C)c(Cl)c2)cc1` gave Rango-impB inh 1.8%, miR-21 reporter -2%, Rango release inh 10% and GLA inh pH 4.5 3.
`CN(C)S(=O)(=O)c1ccc(Cl)c(C(=O)Nc2ccc(S(=O)(=O)N3CCOCC3)cc2)c1` gave Rango-impB inh 11%, miR-21 reporter 12% and Rango release inh -13%.
For O=C(COc1ccc(F)cc1Br)N1CCN(c2ncccn2)CC1 the results were Rango-impB inh -1.2%, miR-21 reporter -17%, Rango release inh -5% and GLA inh pH 4.5 -17.
`COc1ccccc1NC(=O)Cn1cnc2sc(C(=O)Nc3ccc(OC)c(OC)c3)c(C)c2c1=O` gave Rango-impB inh 0.0%, miR-21 reporter 0% and Rango release inh 0%.
`O=C1Nc2ccc3c(c2C1=Cc1cc2c(cc1Br)OCO2)OCO3` gave Rango-impB inh -5.6% and Rango release inh -4%.
`CSc1nc2c(c(=O)n1-c1ccc(C)cc1)SCC2` gave Rango-impB inh inconclusive, miR-21 reporter -19%, Rango release inh -15% and GLA inh pH 4.5 -19.
`Cc1occc1C(=O)N/N=C/c1cccs1` gave Rango-impB inh 0.5%, miR-21 reporter -52%, Rango release inh 13% and GLA inh pH 4.5 6.
Screening CN(C(=O)COc1ccccc1)c1nc(-c2ccc(F)cc2)cs1 returned Rango-impB inh 1.3%, miR-21 reporter 2%, Rango release inh 0% and GLA inh pH 4.5 inconclusive.
CC1CCCC(NC(=O)C2COc3ccccc3O2)C1C (stereo not drawn) was read as Rango-impB inh 0.0% and Rango release inh -28%.
Screening CCC(=O)Nc1ccc(C(=O)CSc2nc3ccccc3[nH]2)cc1 returned Rango-impB inh -0.3%, miR-21 reporter -10%, Rango release inh -12% and GLA inh pH 4.5 0.
`Cc1ccc(N2C(=O)N(CC(=O)Nc3cc(Cl)ccc3C)C(=O)C2C)cc1` (stereo not drawn) gave Rango-impB inh -3.6% and Rango release inh -7%.

Sorted by count of non-hydrogen atoms (ascending): part of the list above.
`CSc1nc2c(c(=O)n1-c1ccc(C)cc1)SCC2` gave Rango-impB inh inconclusive, miR-21 reporter -19%, Rango release inh -15% and GLA inh pH 4.5 -19.
CC1CCCC(NC(=O)C2COc3ccccc3O2)C1C (stereo not drawn) was read as Rango-impB inh 0.0% and Rango release inh -28%.
Screening CN(C(=O)COc1ccccc1)c1nc(-c2ccc(F)cc2)cs1 returned Rango-impB inh 1.3%, miR-21 reporter 2%, Rango release inh 0% and GLA inh pH 4.5 inconclusive.
`CC(=O)Nc1ccc(S(=O)(=O)NCCC(=O)Nc2ccc(C)c(Cl)c2)cc1` gave Rango-impB inh 1.8%, miR-21 reporter -2%, Rango release inh 10% and GLA inh pH 4.5 3.
`CN(C)S(=O)(=O)c1ccc(Cl)c(C(=O)Nc2ccc(S(=O)(=O)N3CCOCC3)cc2)c1` gave Rango-impB inh 11%, miR-21 reporter 12% and Rango release inh -13%.
For CCCOC(=O)c1c(NC(=O)CCCn2nc([N+](=O)[O-])c(Cl)c2C)sc(C(=O)OC)c1C the results were Rango-impB inh -0.1%, miR-21 reporter -8%, Rango release inh 2% and GLA inh pH 4.5 -7.
`COc1ccccc1NC(=O)Cn1cnc2sc(C(=O)Nc3ccc(OC)c(OC)c3)c(C)c2c1=O` gave Rango-impB inh 0.0%, miR-21 reporter 0% and Rango release inh 0%.

(further entries)
Screening COc1ccc(C2CC23N=C(c2ccccc2)OC3=O)cc1 (stereo not drawn) returned Rango-impB inh -3.2%, miR-21 reporter -7%, Rango release inh -4% and GLA inh pH 4.5 -2.
`C=CCSc1nc2c(cc1C#N)CCC2` gave Rango-impB inh -1.7%, miR-21 reporter -19%, Rango release inh 2% and GLA inh pH 4.5 5.
Screening Cc1cccc2cc(CN(Cc3nnnn3Cc3ccccc3)C3CCCC3)c(=O)[nH]c12 returned Rango-impB inh -1.2%, miR-21 reporter 9%, Rango release inh 9% and GLA inh pH 4.5 -15.
Screening Cc1nn(-c2ccccc2)c(C)c1NC(=O)COC(=O)c1cc([N+](=O)[O-])ccc1NCCO returned Rango-impB inh -5.3%, miR-21 reporter -1% and Rango release inh 1%.
CCCOC(=O)CSC1=C(C#N)C(c2ccccc2Cl)CC(=O)N1 (stereo not drawn) was read as Rango-impB inh 4.9%, miR-21 reporter -8%, Rango release inh inconclusive and GLA inh pH 4.5 -9.
Screening COCC(C)n1c(C)cc(C(=O)CSc2nnc(N)s2)c1C (stereo not drawn) returned Rango-impB inh 1.7%, miR-21 reporter -33%, Rango release inh inconclusive and GLA inh pH 4.5 3.
CCCCc1nc(S(=O)(=O)c2ccc(Cl)cc2)c(N2CCOCC2)o1 was read as Rango-impB inh 0.0%, miR-21 reporter -49%, Rango release inh -6% and GLA inh pH 4.5 -1.

Screening results: PubChem, National Center for Advancing Translational Sciences (NCATS)
